Screening data from PubChem BioAssay.
Biofilm kill mix = mixture kills Candida albicans biofilm cells; AID 1242; C. albicans biofilm persisters + clotrimazole, fluorescence viability; primary screen in compound mixtures of four per well; 0.02% of 120,000 active; inhibition, % at 7.6 µM;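 active = inhibition above 30.3% in the primary screen of four-compound pools, then above 30% when the compound was retested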;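 also: compounds exposed to preformed 24 h biofilms for 48 h; the number belongs to the whole pool; some results filed as inactive read as strong as hits; inactives centre near 12; 0% = biofilm with clotrimazole alone and 100% = kill control; retested singly at about 60 µM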
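Test system: C. albicans CAF4-2 wild-type biofilms; buffer or medium: RPMI/MOPS medium, pH 7.0; schedule: 24 h biofilm formation, then 48 h compound exposure, 37 °C; detection: Alamar Blue fluorescence; measure: percent inhibition of biofilm viability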
* = called active by the depositor. This is a subset (hit frequency here may not be typical).

SMILES	Biofilm kill mix
COCCNC(=O)C(=O)N/N=C/c1ccc(C(=O)OC)cc1	17
O=C(CCN1C(=O)/C(=C/c2cccs2)SC1=S)Nc1ccccn1	7
CC(=O)c1c(C)nc(-c2ccc(Cl)cc2)nc1N	0
Cc1cccc(C2(c3cccc(C)c3)CC2C(=O)NCC2CCCO2)c1 (centres undefined)	14
N=c1c2c3c(sc2ncn1N)CCC3	14
C/C(=N\NC(=O)Cn1ccc(C(F)(F)F)n1)c1ccc2c(c1)OCO2	14
C=CCOc1ccc2c(CC)cc(=O)oc2c1C	17
S=C(Nc1ccc(Oc2ccc(NC(=S)NC3CCCCC3)cc2)cc1)NC1CCCCC1	15
CCCC(=O)NC(=S)Nc1cccc2c(O)cccc12	14
Cc1nn(C)cc1/C=N\NC(=O)Cc1ccc([N+](=O)[O-])cc1	-2
Cc1ccc(-c2nnc(SCC(=O)N/N=C/c3c(C)nn(-c4ccccc4)c3C)n2-c2ccc(C)cc2)cc1	9
COc1cc(OC)c(OC)cc1CN1CCCC(C(=O)c2sccc2C)C1 (centres undefined)	2
CC(NC(=O)CN(C)CC(=O)Nc1ccc(F)c(F)c1F)c1ccccc1 (centres undefined)	12
C=CCn1cccc(C(=O)Nc2cc(OC)c(OC)c(OC)c2)c1=O	-5
N/C(=N\OC(=O)Nc1ccccc1)c1ncc([N+](=O)[O-])s1	12
COc1ccc(Cl)cc1NC(=O)C(C)OC(=O)c1ccc(NS(=O)(=O)c2ccc3[nH]c(=O)[nH]c3c2)cc1 (centres undefined)	6
CC(C)c1onc(C(=O)N2CCCCCC2)c1[N+](=O)[O-]	18
CCn1c(SCc2ccccc2)nnc1-c1cccnc1	14
CCCCCSc1nnc(-c2ccccc2NC(C)=O)c(=O)[nH]1	14
COc1ccc(NC(=S)N2CCCCC2c2cccnc2)cc1 (centres undefined)	12
CC(NC(=S)Nc1ccccc1Cl)C(c1ccccc1)N1CCOCC1 (centres undefined)	-1
COc1ccc(C(NC(C)=O)c2cc(Cl)c3cccnc3c2O)cc1OC (centres undefined)	29
CCOC(=O)C1(Cc2cccc(OC)c2)CCN(Cc2cccc(OCC)c2O)CC1	10
NC(=S)NNc1c(F)c(F)c(F)c(F)c1F	23
CCc1nnc(NS(=O)(=O)c2ccc(NC(=S)NC(=O)/C=C/c3cccs3)cc2)s1	4
C=CCNCCCCOc1cccc(Br)c1	53
O=C(NCc1ccncc1)Nc1cc(Cl)ccc1Cl	13
O=C(O)CNC(=O)CCn1nnc2ccccc2c1=O	32
CCCc1noc2c1/C(=N\O)CC(c1ccccc1)C2 (centres undefined)	22
CCN(CC)S(=O)(=O)c1ccc(OCC(=O)NC2CCS(=O)(=O)C2)c([N+](=O)[O-])c1 (centres undefined)	12
CC1=CCC2C(=O)N(c3ccc(OC(=O)c4ccco4)cc3)C(=O)C2C1 (centres undefined)	2
O=C(Cc1ccc(Cl)cc1Cl)Nc1ccc(OC(F)F)c(Cl)c1	17
Cc1nnc(NC(=O)CSc2ccc(-c3ccccn3)nn2)s1	6
COc1ccc(S(=O)(=O)N2CCCN(S(=O)(=O)c3ccc(OC)c(C)c3)CC2)cc1C	21
CN(C)/C=C/C(=O)c1ccccc1	16
Nc1c(CO)nnn1-c1ccccc1	3
Cc1ccc(NC(=O)CN(C)C(=O)c2ccc(C(F)(F)F)cc2)cc1	10
CCOc1cc(NC(=S)NCC(C)C)c(OCC)cc1NC(=O)c1ccco1	22
COC(=O)/C(=N\Nc1ccccc1)Sc1nnc(-c2ccc(OC)cc2)n1C	9
Cc1csc(NC(=O)CSc2nnc(NC(=O)COc3ccccc3)s2)n1	10
O=C(N/N=C\c1ccccn1)c1ccccc1O	17
O=C1CCCN1CCCNC(=S)Nc1cccc2ccccc12	20
CS(=O)(=O)N1CCC(C(=O)N2CCN(c3cccc(Cl)c3)CC2)CC1	13
Cc1ccc(S(=O)(=O)NCCc2cccs2)cc1	20
Cc1ccccc1-n1c(-c2ccc(Cl)cc2)cnc1SCC(=O)NC1CCS(=O)(=O)C1 (centres undefined)	6
Cc1nc(-c2ccncc2)nc(NCCNc2ccc(C(F)(F)F)cn2)c1Cl	9
Cc1nnc(NC(=O)CSc2ccc(-c3cccnc3)nn2)s1	17
Cc1cc(-c2ccccc2)nc2c(Br)c(=O)[nH]n12	18
O=C(Nc1cccc(S(=O)(=O)N2CCCCC2)c1)c1ccc2ccccc2n1	8
Fc1cccc(-n2c(-c3cccs3)nc3nc4ccccc4nc32)c1	25
O=C(NCc1ccc(F)cc1)c1cccc2c1C(=O)N(Cc1cccnc1)C2	4
Cc1c(NC(=S)N/N=C/C=C/c2ccc([N+](=O)[O-])cc2)c(=O)n(-c2ccccc2)n1C	9
COc1ccc(-c2nnnn2C)cc1S(=O)(=O)NCCc1ccccc1	-42
ClCc1ncc(-c2ccc(Cl)cc2)o1	15
Cc1cccc(-c2noc(-c3ccc(Cl)cc3[N+](=O)[O-])n2)c1	-3
COCCOC(=O)C1=C(C)NC(C)=C(C(=O)OCCOC)C1/C=C/c1ccccc1OC	18
COc1ccc(-c2cc(C(=O)Nc3ccccc3)on2)cc1	-8
COc1ccc(C)cc1NC(=O)C(OC(=O)CNC(=O)c1ccc(Oc2ccccc2)cc1)c1ccccc1 (centres undefined)	19
O/N=C/c1ccc2ccccc2n1	14
O=C(c1nc2ccc(Cl)cn2c1CNCC[C@@H]1C[C@@H]2C=C[C@H]1C2)N1CCCCCCC1	17

Continued.
SMILES	Biofilm kill mix
COc1ccc(C2=NN(C(=O)CSc3ncccn3)C(c3ccc(OC)cc3)C2)cc1 (centres undefined)	14
C/C(=N/NC(=O)CNC(=O)COc1ccccc1)c1ccco1	18
C=CCOc1ccc(CNc2nccs2)cc1OCC	15
CC1CCc2c(sc(NC(=O)CSc3nc4c(c(C(F)(F)F)n3)CCc3ccccc3-4)c2C(N)=O)C1 (centres undefined)	16
Cc1ccc(NC2c3ccccc3C(=O)N2c2cccnc2)cc1 (centres undefined)	16
COc1ccc(C(=O)Nc2cc(C)on2)cc1[N+](=O)[O-]	21
Cc1ccc(C2=N/C(=C\c3c(C)nn(-c4ccccc4)c3N3CCCC3)C(=O)O2)cc1	21
CCCCc1nnc(NC(=O)COc2ccc3c(C)cc(=O)oc3c2)s1	8
CC(=O)c1cccc(Nc2cc(C)nc3c(C)cccc23)c1	8
CC12CCC(C(=O)N/N=C/c3ccc(O)cc3)(OC1=O)C2(C)C (centres undefined)	27
CCOC(=O)NC(=O)COC(=O)c1cccc2ccccc12	9
CCO[C@H]1OC(C(=O)N2CCN(C)CC2)=C[C@@H](C(C)(C)C)[C@@H]1CCCO	21
COc1ccc(N2CCN(C(=O)CCS(=O)(=O)c3cccc4nsnc34)CC2)cc1	10
Cc1ccc(OCCNC(=O)c2cc(C(=O)NCCOc3ccc(C)cc3)cc([N+](=O)[O-])c2)cc1	14
CCC(C)NC(=O)c1cccc(C)c1 (centres undefined)	12
Cc1cc(C)c2nc3nc(C)c(C)cc3c(N)c2c1	13
CCCCCC(=O)NC(=S)NC1C2CC3CC(C2)CC1C3 (centres undefined)	12
Cc1ccc(Oc2ccc(-c3nnc(-c4ccccc4)o3)cc2[N+](=O)[O-])cc1C	12
COc1ccc(/C=C2\CN(Cc3ccccc3)C/C(=C\c3ccc(OC)cc3)C2=O)cc1	18
Cc1cccc(C)c1NC(=O)COC(=O)Cc1ccsc1	9
CC(C)CCn1c(NCCc2ccccc2)nc2c1c(=O)n(C)c(=O)n2C	11
O=C(Nc1cccn(Cc2ccccc2Cl)c1=O)NC1CCCCC1	13
O=c1[nH]c(CSc2cccc[n+]2[O-])nc2ccccc12	26
Cc1onc(-c2ccccc2)c1C(=O)N/N=C/c1cc2c(cc1Cl)OCO2	8
CC1OC(C)(C)OC1C1CNc2nc(NC(=O)C(C)(C)C)[nH]c(=O)c2N1C(=O)c1cccnc1 (centres undefined)	16
O=c1c(-c2ccc3c(c2)OCCO3)coc2cc(OC3OC(CO)C(O)C(O)C3O)ccc12 (centres undefined)	20
O=C(COC(=O)c1cncc(Br)c1)NCc1ccc(F)cc1	5
CN/N=C/c1ccc(C#N)cc1	10
Brc1ccc(-c2csc(Nc3nc(-c4ccc(Br)cc4)cs3)n2)cc1	17
O=C(Nc1ccnc(-c2ccncc2)n1)c1ccc(Cl)cc1	1
O=C(CCNC(=O)c1ccccc1Cl)Nc1ccc(S(=O)(=O)Nc2ncccn2)cc1	19
O=C(NCc1cccnc1)c1cc(-c2ccc(Cl)cc2)oc1C(F)(F)F	3
Cc1nc(C(=O)O)nn1-c1cc(Cl)ccc1Cl	14
Cc1ccc(NC(=O)Nc2ccc3c(c2)nc(C)n3C)cc1	14
O=[N+]([O-])c1ccc(Cc2ccncc2)cc1	7
S=C(Nc1ccccc1Oc1ccccc1)Nc1cccc(Cl)c1Cl	2

The final 3 compounds of the section before come first, to join the parts:
SMILES	Biofilm kill mix
Cc1ccc(NC(=O)Nc2ccc3c(c2)nc(C)n3C)cc1	14
O=[N+]([O-])c1ccc(Cc2ccncc2)cc1	7
S=C(Nc1ccccc1Oc1ccccc1)Nc1cccc(Cl)c1Cl	2
CCOC(=O)Cc1csc(NC(=O)Nc2ccccc2)n1	16
CCOC(=O)Cc1csc(N/C(=N/S(=O)(=O)c2ccc(F)cc2F)c2ccccc2)n1	9
Nc1ccc2nc(N3CCOCC3)sc2c1	9
O=[N+]([O-])c1ccccc1-c1cc(-c2cc(Cl)ccc2O)n[nH]1	24
NC(=NCCc1c[nH]c2ccccc12)NS(=O)(=O)c1ccc2ccccc2c1	13
O=C(O)COc1c(Cl)cc(/C=C2\NC(=O)NC2=O)cc1Br	27
Cc1ccccc1-c1nc(C#N)c(NCc2ccco2)o1	10
C/C(=N\NC(=S)NC(C)C)c1ccccc1OC(F)F	16
Cn1nc(C(=O)Nc2ccc(S(=O)(=O)N3CCOCC3)cc2)c2ccccc2c1=O	13
COC(=O)c1sccc1NC(=S)N1CCC(C(N)=O)CC1	10
Cc1ccc2[nH]ccc(=O)c2c1	16
COc1cccc(NC(=O)Cn2c(=O)n(-c3cc(OC)c(OC)c(OC)c3)c(=O)c3ccccc32)c1	8
CCc1ccc(Nc2c([N+](=O)[O-])c(=O)oc3ccccc23)cc1	23
CC(CC(=O)O)CC(=O)Nc1cc([N+](=O)[O-])ccc1O (centres undefined)	30

Of the compounds above, these have two or more sulfur atoms.
SMILES	Biofilm kill mix
O=C(CCN1C(=O)/C(=C/c2cccs2)SC1=S)Nc1ccccn1	7
S=C(Nc1ccc(Oc2ccc(NC(=S)NC3CCCCC3)cc2)cc1)NC1CCCCC1	15
CCc1nnc(NS(=O)(=O)c2ccc(NC(=S)NC(=O)/C=C/c3cccs3)cc2)s1	4
CCN(CC)S(=O)(=O)c1ccc(OCC(=O)NC2CCS(=O)(=O)C2)c([N+](=O)[O-])c1 (centres undefined)	12
Cc1nnc(NC(=O)CSc2ccc(-c3ccccn3)nn2)s1	6
COc1ccc(S(=O)(=O)N2CCCN(S(=O)(=O)c3ccc(OC)c(C)c3)CC2)cc1C	21
Cc1csc(NC(=O)CSc2nnc(NC(=O)COc3ccccc3)s2)n1	10
Cc1ccc(S(=O)(=O)NCCc2cccs2)cc1	20
Cc1ccccc1-n1c(-c2ccc(Cl)cc2)cnc1SCC(=O)NC1CCS(=O)(=O)C1 (centres undefined)	6
Cc1nnc(NC(=O)CSc2ccc(-c3cccnc3)nn2)s1	17
CC1CCc2c(sc(NC(=O)CSc3nc4c(c(C(F)(F)F)n3)CCc3ccccc3-4)c2C(N)=O)C1 (centres undefined)	16
COc1ccc(N2CCN(C(=O)CCS(=O)(=O)c3cccc4nsnc34)CC2)cc1	10
Brc1ccc(-c2csc(Nc3nc(-c4ccc(Br)cc4)cs3)n2)cc1	17
CCOC(=O)Cc1csc(N/C(=N/S(=O)(=O)c2ccc(F)cc2F)c2ccccc2)n1	9
COC(=O)c1sccc1NC(=S)N1CCC(C(N)=O)CC1	10
